Ba CapD inh – inhibitors of Bacillus anthracis CapD enzyme; purified CapD enzyme, fluorescence intensity read-out; hits give low values; some hits fall short of the stated cut; z-score (no concentration beside the values); 140,000 compounds, 0.23% hits; AID 492967;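 active = z-score under -4 in either of two replicates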;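 also: stock transfer was 100 nL into about 40 µL; score is relative to mean and spread of the plate; one replicate is shown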
AID504770 – growth inhibitors of E. coli YBA685 in a screen for V. cholerae RctB (chromosome II replication) inhibitors; E. coli YBA685 rctB-dependent plasmid, OD600 growth, 3 h; hits give low values; z-score (concentration not given with the values); 130,000 compounds, 0.27% hits;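 active = z-score under -2 on both plates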;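 also: wells of about 30 µL received 100 nL stock; score is relative to mean and SD of the test wells; the first replicate is given; strong numbers were not always called active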
Starred values were filed as active, the others as inactive; nt = no result given; & = joins results of further samples.

SMILES	Ba CapD inh	AID504770
COc1cccc(CNC(=O)c2[nH]nc3c2COc2ccccc2-3)c1	0.44	0.8
CNC(=S)Nc1ccc(C)cc1	-0.06	-0.3
CCOC(=O)C1CCCN(Cc2nc(N)nc(Nc3ccccc3)n2)C1 (stereo not drawn)	-0.52	1.25
CCOC(=O)C1=C(CN2CC(C)CC(C)C2)NC(=O)NC1c1ccc(C)cc1 (stereo not drawn)	0.91	-0.7
COc1ccc(-c2n[nH]c(=S)n2-c2cccc(C(F)(F)F)c2)cc1	0.035	nt
CC1(C)CC(=O)C2=C(C1)OC1=C(C(=O)CC(C)(C)C1)C2c1cc(Cl)ccc1O	-0.075	nt
CCOc1ncccc1C(=O)Nc1ccc(S(=O)(=O)N2CCOCC2)cc1	nt	-0.65
COC(=O)c1cc([N+](=O)[O-])ccc1N1CCOCC1	-1.96	nt
Brc1ccc(CN2c3ccccc3Sc3cccnc32)cc1	1.32	nt
O=[N+]([O-])c1ccc(OCCO)nc1	0.105	nt
Cc1cc(C)nc(Nc2cccc(C(=O)O)c2)n1	0.145	nt
CCOC(=O)c1cc2c(ccn2C)n1CC(=O)N1C(C)CCCC1C (stereo not drawn)	nt	-0.2
O=C(O)c1ccc2c(c1)C(=O)N(c1nc3nc4c(c(=O)n3[nH]1)CCC4)C2=O	-0.1	0.7
COc1ccc(/C=C2\SC(=S)N(CC(=O)NCCO)C2=O)cc1	nt	-0.6
Cc1ccccc1CSc1cnc2ccccc2n1	0.085	-0.2
CC(NC(=O)c1ccc2c(c1)OCO2)C(c1cccs1)N1CCOCC1 (stereo not drawn)	-0.48	-0.8
CS(=O)(=O)Nc1ccccc1Cc1ccccc1	0.615	0.65
COCCN(Cc1ccco1)C(=O)Cn1nc(Cc2cccnc2)c2ccccc2c1=O	-0.09	0.55
CCCOc1ccccc1C1NC(=O)NC(C)=C1C(=O)OCCCBr (stereo not drawn)	-0.53	nt
CN=c1scc(-c2ccc(C)c(C)c2)n1/N=C/c1ccc[nH]1	nt	0.05
COc1ccc(C(=O)CSc2nc(C)cc(C)c2C#N)cc1	-0.115	0
CCOc1ccc(-n2c(SCC(=O)NC3CCCC3)nnc2-c2ccoc2C)cc1	nt	-0.1
CCN(CC)c1ccc(C=C2C(=O)c3ccccc3C2=O)c(O)c1	nt	-0.25
COc1ccccc1-c1ncnn1C1=C(C#N)C2CCCCCC2S1 (stereo not drawn)	nt	-0.05
O=C1CC(c2ccccc2)CC(O)=C1C=NCc1ccco1 (stereo not drawn)	-0.365	1.4
O=C(NCc1cccs1)c1ccc(Cl)cc1	-0.895	-0.65
Cc1cc(C)c2c3c(oc2n1)C(=O)N(c1ccccc1)CC(=O)N3	-0.79	-0.35
Cn1c(CC(O)c2cccc3ccccc23)nc2ccccc21 (stereo not drawn)	0.135	-1.1
O=C(Cn1ncc2ccccc21)NCc1cccnc1	0.235	1.95
CNC1=C(n2nnc3ccccc32)C(=O)c2ccccc2C1=O	-0.7	-0.15
NNC(=O)CCCOc1ccc(Cl)cc1Cl	nt	-0.05
COC(=O)C(Cc1c[nH]c2ccccc12)NS(=O)(=O)c1cc(Cl)cc(Cl)c1 (stereo not drawn)	-0.195	nt
O=c1[nH]nc(-c2ccccc2)c(=O)[nH]1	1.34	nt
N#Cc1ccc(C(=O)N2CCN(c3cccc(C(F)(F)F)c3)CC2)cc1	nt	-0.25
O=C(O)C1CCC(N2C(=O)C3CCCCC3C2=O)CC1 (stereo not drawn)	0.25	nt
CC1S/C(=C(/C#N)C(N)=O)N(c2ccccc2)C1=O (stereo not drawn)	-0.13	-0.85
COc1ccc(NC(=O)CSc2nc3n[nH]c(C)c3c(=N)n2-c2cccc(Cl)c2C)c(OC)c1	0.27	nt
COc1ccc(C2CC(=O)C3=C(C2)Nc2ccccc2NC3c2cc(Cl)c(O)c(OC)c2)cc1OC (stereo not drawn)	-1.03	nt
Cn1c(CNC(=O)c2cccs2)nnc1SCc1ccccc1	0	1.6
Cc1cccc2c1CC(C)(C)N=C2C1=C(O)CCCC1=O	6.67	nt
COCc1cc(C)nc(SCC(=O)N2CCOCC2)c1C#N	18.8	-0.9
CS(=O)(=O)c1ccc(C(=O)N2CCc3ccccc3C2)cc1	nt	-1.4
O=C1C=CC(=O)N1c1ccccc1OC(F)(F)F	-0.175	-0.3
CCN(CC)c1nc2ccccc2n(CC(=O)Nc2ccc(F)cc2F)c1=O	nt	-0.5
COc1cccc(-c2nc(-c3cc4ccccc4[nH]c3=O)no2)c1	15.3	-0.95
NNC(=O)c1sc2ccccc2c1Cl	-0.895	nt
Oc1oc(-c2ccccc2)nc1/C=C1\C=Nc2ccccc21	-2.58	4.05
COc1ccc2c(c1)CCC/C2=N\N	1.56	-0.3

In the list so far, 2 contain two or more sulfur atoms.
SMILES	Ba CapD inh	AID504770
COc1ccc(/C=C2\SC(=S)N(CC(=O)NCCO)C2=O)cc1	nt	-0.6
Cn1c(CNC(=O)c2cccs2)nnc1SCc1ccccc1	0	1.6

Other entries follow:
SMILES	Ba CapD inh	AID504770
CSc1nc2c(c(=O)n1-c1ccc(F)cc1)SCC2	0.625	0.35
Cc1ccccc1N1OC2C(=O)N(c3sc4c(c3C#N)CCCC4)C(=O)C2C1c1cccs1 (stereo not drawn)	0.045	0.2
Cc1ccccc1-c1nnc(-c2ccccc2)o1	-0.195	1.95
O=C(NC1(O)C(=O)c2ccccc2C1=O)c1ccccn1	-0.09	0.6
Cn1ncc2c(NCCO)ncnc21	-0.015	0.65
CCOC(=O)C1=C(C)NC2=C(C(=O)C(C(=O)OCC)C(c3ccc(OC)cc3)C2)C1c1ccc2c(c1)OCO2 (stereo not drawn)	16.2	nt
CC(=O)NCc1ccc(C(=O)CSc2nnc3sc4ccccc4n23)o1	nt	-0.35
O=C1CCC(C(=O)Nc2nc(SCc3ccc(Cl)cc3)n[nH]2)=NN1	nt	-0.2
Nc1ccc(C(=O)NCC(=O)O)cc1	0.43&-0.055	0.25
O=C1ON(c2ccccc2)C(c2ccccc2)N1c1ccc(Cl)cc1 (stereo not drawn)	0.455	-0.35
C=CC[N+](C)(C)CCN1C(=O)C2C(c3ccccc3)C=CC(c3ccccc3)C2C1=O (stereo not drawn)	-0.27	0.05
COc1cc2c(cc1OC)C(Nc1ccc(Cl)c(Cl)c1)=NC(C)(C)C2	-0.335	nt

Reprinted from the part before: 7 compounds; new compounds follow.
SMILES	Ba CapD inh	AID504770
CCOC(=O)C1=C(C)NC2=C(C(=O)C(C(=O)OCC)C(c3ccc(OC)cc3)C2)C1c1ccc2c(c1)OCO2 (stereo not drawn)	16.2	nt
CC(=O)NCc1ccc(C(=O)CSc2nnc3sc4ccccc4n23)o1	nt	-0.35
O=C1CCC(C(=O)Nc2nc(SCc3ccc(Cl)cc3)n[nH]2)=NN1	nt	-0.2
Nc1ccc(C(=O)NCC(=O)O)cc1	0.43&-0.055	0.25
O=C1ON(c2ccccc2)C(c2ccccc2)N1c1ccc(Cl)cc1 (stereo not drawn)	0.455	-0.35
C=CC[N+](C)(C)CCN1C(=O)C2C(c3ccccc3)C=CC(c3ccccc3)C2C1=O (stereo not drawn)	-0.27	0.05
COc1cc2c(cc1OC)C(Nc1ccc(Cl)c(Cl)c1)=NC(C)(C)C2	-0.335	nt
Cn1c(=O)c2c(nc3n(CC(O)c4ccccc4)c(-c4ccccc4)cn23)n(C)c1=O (stereo not drawn)	-0.22	1.05
CN1C2CCC1CC(OC1c3ccccc3CCc3ccccc31)C2 (stereo not drawn)	0.085	nt
COc1cc(OC)c(CN2CCCCC2COC(=O)NCc2ccc(-c3csnn3)cc2)cc1Br (stereo not drawn)	0.245	nt
O=C(Nc1nccs1)c1oc2ccccc2c1CSc1ncn[nH]1	nt	2.2
CC1(C)C2CCC1(CS(=O)(=O)NCCCN1CCCC1=O)C(=O)C2 (stereo not drawn)	nt	-0.2
O=C(COC(=O)[C@@H]1CCCN1S(=O)(=O)c1ccccc1F)c1ccccc1	nt	0.65
COc1cccc2cc(C(=O)Nc3sc(C)c(-c4ccccc4)c3C(N)=O)c(=O)oc12	-0.16	1.8
CCC(=O)NCCc1nc2cc(NC(=O)Nc3ccccc3)ccc2n1C	-0.105	0.25
COc1ccc(CC2C(=O)OC(C)(C)OC2=O)c(Cl)c1OC	0.395	-1.15
CCn1c(SCC(N)=O)nnc1C1CCCC1	0.715	1
COC(=O)c1cccc(NC(=O)/C=C/c2ccco2)c1C	-1.18	0.55
Cc1ccc(C2Nc3ccccc3C(=O)N2CCN2CCNC2=O)cc1 (stereo not drawn)	106	1.8
C=CCC(O)(CC=C)C(N)Cc1ccccc1 (stereo not drawn)	-0.125	-1.05
CN1CCN(C(=O)c2ccc(NCCc3ccc(Cl)cc3)c(S(=O)(=O)Nc3cccc(C(F)(F)F)c3)c2)CC1	3.5	nt
Cc1ccccc1C(CC(=O)O)N1Cc2ccccc2C1=O (stereo not drawn)	-0.155	-0.8
N#CCCCSc1ncnc2scc(-c3ccccc3)c12	nt	1.15
Cc1cccn2c(=O)c(C(=O)NC3CCCCC3C)c(O)nc12 (stereo not drawn)	nt	0.05
Clc1ccc(-c2cc(COc3cc(Cl)cc(Cl)c3)on2)cc1	-0.89	nt
CN(C)C1CS(=O)(=O)CC1N(C)C (stereo not drawn)	-0.165	1.6
O=C(Cn1cc(C(F)(F)F)ccc1=O)N/N=C/c1ccccn1	nt	0.1
CN(C(=O)Cn1nc(Cc2ccncc2)c2ccccc2c1=O)c1ccccc1	5.11	-0.05
Ic1ccc2c(c1)CCO2	-0.025	nt
COc1ccc(N2C(=O)CC(Sc3nc4ccccc4c(=O)n3CCO)C2=O)cc1 (stereo not drawn)	nt	-2.15*
Cc1ccccc1C1C(C#N)=C(SCC(=O)Nc2ccc(Br)cc2)NC(=O)C1C#N (stereo not drawn)	0.215	nt

The last two records of the section above are carried over, then new ones follow.
SMILES	Ba CapD inh	AID504770
COc1ccc(N2C(=O)CC(Sc3nc4ccccc4c(=O)n3CCO)C2=O)cc1 (stereo not drawn)	nt	-2.15*
Cc1ccccc1C1C(C#N)=C(SCC(=O)Nc2ccc(Br)cc2)NC(=O)C1C#N (stereo not drawn)	0.215	nt
O=C(NC(Cc1c[nH]c2ccccc12)C(=O)Nc1cccnc1)OCc1ccccc1 (stereo not drawn)	0.92	nt
N#Cc1nncn1-c1ncnc2scc(-c3ccc(Cl)cc3)c12	nt	1.65
CCCSc1nnc2c(n1)OC(c1c(C)[nH]n(-c3ccccc3)c1=O)Nc1ccccc1-2 (stereo not drawn)	-0.12	nt
CCn1c(=O)c2c(nc3n2CCCN3c2ccccc2)n(C)c1=O	0.36	0.55
CCN1C(=O)C(=C2SC3CS(=O)(=O)CC3S2)SC1=S (stereo not drawn)	nt	0
CCc1nc2ccccc2c2c1C(=O)N(NC(=O)c1ccc(Cl)cc1)C2=O	0.475	nt
O=C(O)CC1NC(=O)N(C2CCCCC2)C1=O (stereo not drawn)	nt	-1
CCOCC(=O)Nc1c(C(=O)Nc2cccc(OC)c2)oc2ccccc12	0.51	-0.8
CCOc1ccc(-c2[nH]nc3c2C(c2cc(OC)c(OC)c(OC)c2)C(C#N)=C(N)O3)cc1OC (stereo not drawn)	-0.35	nt
Cc1cc(NC(=O)CSc2nc3ccc(Br)cc3c3nc4ccccc4n23)no1	-0.49	nt
N#CC1=C(N)N=C(SCC(=O)Nc2ccccc2)C(C(N)=O)C12CCCCC2 (stereo not drawn)	-1.17	-0.15
CN(C)c1ccc(N=Cc2ccccc2)cc1	nt	0.6
CC(C)(C)c1cc(CCC(=O)NCCN)cc(C(C)(C)C)c1O	0.295	-0.15
O=c1oc2ccccc2c(O)c1Cc1cc(Cl)c2cccnc2c1O	nt	-0.35
CCCOc1ccc(NC(=O)C2CC(=O)N(C)C(=Nc3ccc(OCC)cc3)S2)cc1 (stereo not drawn)	0.35	nt
CCn1c(-c2ccc(C)cc2)cnc1SCC(=O)N1CCN(C(C)=O)CC1	nt	0.2
Cc1onc(-c2ccccc2)c1C(=O)OCC(=O)c1ccc2[nH]c(=O)[nH]c2c1	nt	-0.8
CC(C)CCNC(=O)C1CCCN(c2nc3ccccc3o2)C1 (stereo not drawn)	-0.615	-0.7
CCOc1ccccc1NC(=O)C(C)Sc1ccccc1 (stereo not drawn)	0.33	-0.1
Cc1nc(C)c(C(=O)O)c(-c2cccs2)c1C(=O)O	0.565	-0.25
Nc1ccc(-c2nc3cccnc3s2)cc1	nt	0
CCN(CC)c1ccc(C2C(C#N)=C(N)N(c3ccccc3Cl)C3=C2C(=O)CCC3)cc1 (stereo not drawn)	-0.065	-0.6
CC(C)Nc1nc(NC(N)=O)nc(NC(C)C)n1	nt	0.7
CN1CCc2ccccc2C1Cc1ccccc1NS(=O)(=O)c1cccc(C(F)(F)F)c1 (stereo not drawn)	-0.985	0.9

The last 5 entries of the section above lead into the next:
SMILES	Ba CapD inh	AID504770
Cc1nc(C)c(C(=O)O)c(-c2cccs2)c1C(=O)O	0.565	-0.25
Nc1ccc(-c2nc3cccnc3s2)cc1	nt	0
CCN(CC)c1ccc(C2C(C#N)=C(N)N(c3ccccc3Cl)C3=C2C(=O)CCC3)cc1 (stereo not drawn)	-0.065	-0.6
CC(C)Nc1nc(NC(N)=O)nc(NC(C)C)n1	nt	0.7
CN1CCc2ccccc2C1Cc1ccccc1NS(=O)(=O)c1cccc(C(F)(F)F)c1 (stereo not drawn)	-0.985	0.9
O=C(CC1Sc2ccccc2NC1=O)NNC(=O)OCCOCCN1CCN(C(c2ccccc2)c2ccc(Cl)cc2)CC1 (stereo not drawn)	-0.12	nt
COc1ccc(/C=C2/N=C(C)OC2=O)cc1OC	-0.965	nt
O=C(O)c1cccc(N2C(=S)N=C(Nc3ccccc3)C23CCCCC3)c1	-0.36	nt
O=S(=O)(Nc1cccc(C(F)(F)F)c1)c1ccccc1	0.52	0.9
CCOc1ccc2cc(-c3ccccn3)c(=N)oc2c1	100	0.35
CCOC(=O)c1c(CN2CCN(C)CC2)n(C)c2cc(Br)c(OC)cc12	0.17	nt
O=C(Cc1ncc(C(F)(F)F)cc1Cl)Nc1cccnc1Cl	-0.41	nt
COc1cc(-c2c(C#N)c(OC)[nH]c(=O)c2C#N)cc(OC)c1OC	0.645	nt
Cn1cc(CN2CCN(c3ccccc3)CC2)c2ccccc21	0.82	-0.15

Screens: PubChem, ICCB-Longwood Screening Facility, Harvard Medical School
